Calb FLC: affects C. albicans growth with fluconazole. growth inhibition, % (concentration not given with the values). hit rate 0.57% among 300,000. AID 1979. C. albicans CaCi-2 (fluconazole-resistant clinical isolate) + fluconazole, Alamar Blue growth, 48 h;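 active means most replicates above 75%; inconclusive means exactly half above 75%; inactive means most below 75%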;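 further: all wells also contain fluconazole at 8 µg/ml as a sub-toxic cotreatment; 0% = median of DMSO wells and 100% = median of geldanamycin control wells; wells of about 8 µL received 7.5 nL stock; the first replicate is given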
Beta2AR agonist: human beta-2 adrenergic receptor agonism by FAP | P07550 | Am2.2-beta2AR cells, FAP receptor internalization, flow cytometry; reference of the scale not given here | response, % (test concentration not listed) | hit rate 0.43% among 340,000;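 active means response above a set limit, near 3 SD of response in nonfluorescent compounds, cut at about 42% in these data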;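 further: stock transfer was 100 nL into about 11 µL; a reference agonist was the positive control; negative values mostly stem from fluorescent compounds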
Target sequence (P07550 whole entry, looked up): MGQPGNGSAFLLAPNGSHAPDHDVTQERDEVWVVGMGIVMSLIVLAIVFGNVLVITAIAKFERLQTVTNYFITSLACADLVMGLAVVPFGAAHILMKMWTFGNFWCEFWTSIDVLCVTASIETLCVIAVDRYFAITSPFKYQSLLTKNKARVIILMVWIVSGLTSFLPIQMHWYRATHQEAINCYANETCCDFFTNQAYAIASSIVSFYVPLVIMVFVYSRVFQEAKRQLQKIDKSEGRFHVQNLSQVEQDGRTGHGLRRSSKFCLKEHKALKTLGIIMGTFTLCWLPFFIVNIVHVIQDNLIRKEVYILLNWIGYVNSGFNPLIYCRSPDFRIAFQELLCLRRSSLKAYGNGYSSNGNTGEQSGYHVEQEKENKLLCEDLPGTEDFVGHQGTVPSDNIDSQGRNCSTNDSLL
LANA-H2B inh: blocks KSHV LANA binding to histone H2A/H2B. Q9QR71. cell-free LANA-H2A/H2B peptide, fluorescence polarization. inhibition, % (no concentration beside the values). hit rate 0.6% among 320,000. AID 2629; in the data active means inhibition mostly above about 10%, no sharp cut-off; inactive means mostly below about 6.7%;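 further: stock transfer was 7.5 nL into about 10 µL; 0% = median of vehicle wells and 100% = median of positive control wells; one replicate is shown; the record names a cut of 25% in any replicate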
Beta cell apopt: beta cell apoptosis inhibition. AID 435005. protection from apoptosis, % (concentration not given with the values). hit rate 0.8% among 300,000. INS-1E cytokine-induced death, ATP luminescence, 48 h; percent of positive-control rescue, neutral wells zero;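 active means all replicates at 75% or more, or half of them and the mean; inconclusive means half reach 75% but not the mean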;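 further: 0% = cytokine-treated negative control wells and 100% = positive control rescue; higher means more ATP so stronger rescue from cytokine killing; wells of about 40 µL received 100 nL stock; the first replicate is given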
T cruzi repl: blocks replication of Trypanosoma cruzi; T. cruzi beta-gal in NIH3T3, luminescence, 90 h; inhibition, % (test concentration not listed); hit rate 1.4% among 300,000;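 active means mean inhibition across valid replicates above about 55%, limit read from the data; inconclusive means mean below that limit but half or more replicates reach it; inactive means mean below it, under half of replicates reach it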;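 further: signal also drops with host cell toxicity which is not excluded here; 0% = plate median of DMSO wells and 100% = zero luminescence signal; higher percent means less beta-gal luminescence so fewer parasites; stock transfer was 50 nL into about 50 µL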
A1 inh: inhibitors of the anti-apoptotic protein A1, read as caspase activation; MEF A1-2A-BIM cells, Caspase-Glo 3/7 luminescence, 3 h; percent of clofoctol response, vehicle zero; caspase activation, % (no concentration beside the values); hit rate 0.066% among 330,000;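 active means over half of replicate activation scores above 10%, or exactly half above 10 with the replicate mean above 10; inconclusive means replicate mean below 10 yet half the replicates above 10; inactive means over half of replicates below 10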;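 further: wells of about 30 µL received 50 nL stock; many hits fall short of the cut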
rRNA inh HTS: selective bacterial rRNA inhibition in E. coli | E. coli WT GFP vs humanized-ribosome RFP mutants, fluorescence, 24 h; stronger effect = lower value; DMSO median 0, no signal -100 | GFP signal change (wild-type ribosome), % (concentration not given with the values) | hit rate 1.6% among 350,000;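 active means significant combined selectivity score with lowered wild-type GFP, culture density cut under 30%, mutant RFP and density less affected; inactive means any of these conditions unmet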; further: one replicate is shown; some compounds called inactive have numbers as strong as hits
ALR inh: inhibitors of human sulfhydryl oxidase ALR; P55789; purified ALR, DTT oxidation, H2O2 HRP-luminol luminescence; inhibition, % (concentration not given with the values); hit rate 3.8% among 290,000; AID 485317;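 active means mean and each replicate at 75% or more; inconclusive means only one of the two met; inactive means neither met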;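 further: stock transfer was 7.5 nL into about 7.5 µL; 0% = neutral wells and 100% = wells with inactivated enzyme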
Target sequence (P55789 whole entry, looked up): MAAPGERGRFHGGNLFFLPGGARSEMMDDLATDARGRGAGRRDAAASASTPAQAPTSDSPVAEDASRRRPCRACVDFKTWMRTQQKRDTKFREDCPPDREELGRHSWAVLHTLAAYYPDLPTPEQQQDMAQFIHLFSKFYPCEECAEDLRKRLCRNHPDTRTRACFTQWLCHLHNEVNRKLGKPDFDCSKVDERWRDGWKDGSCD
rRNA inh HTS OD600: also measured in rRNA inh HTS; calls as there; OD600 change, %; measured here: OD600 growth;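 optical density of the mix in the first replicate; 0 = DMSO median and -100 = no signal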
rRNA inh HTS RFP: recorded beside rRNA inh HTS, whose call it bears; RFP signal change, %; measured here: RFP humanized mutant strains;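 first replicate; 0 = DMSO median and -100 = no signal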
* marks the source's active call; other numbers are inactive results; i = inactive; u = inconclusive; x = no result given. Only part of the results is shown. The share of hits here may be higher or lower than overall.

SMILES | Calb FLC | Beta2AR agonist | LANA-H2B inh | Beta cell apopt | T cruzi repl | A1 inh | rRNA inh HTS | rRNA inh HTS OD600 | rRNA inh HTS RFP | ALR inh
COc1cccc(OCc2cc(C(=O)NCC3CCCCC3)no2)c1 | -10 | -3 | -0.2 | 10 | 14 | -0.5 | 2 | 5 | -0.2 | -7
CCOC(=O)c1ccc(Nc2cc(C)nc(C)c2C(=O)OCC)cc1 | -22 | -2 | -2.9 | 0 | 15 | 0.1 | x | x | x | 0
N#CC1=C2C=Cc3ccccc3N2CCCC1=O | -2 | -7 | -2.0 | -2 | -12 | 0.0 | x | x | x | -8
CN(C)c1ccc(/C=C/C(O)=C2/C(=O)N(C)C3(C)CC2c2ccccc2O3)cc1 (stereo unspecified) | -10 | x | -5.4 | 6 | 16 | -0.7 | x | x | x | 25
CC1(C)CC(=O)C2=C(C1)NC(=O)CC2c1ccc(F)cc1 (stereo unspecified) | u | -1 | -3.0 | 3 | -14 | 0.2 | x | x | x | 0
CC(C)NC(=S)N/N=C/c1c[nH]c2ccccc12 | 7 | 3 | -1.8 | x | -5 | -0.3 | x | x | x | 74
CC(NC(=O)/C=C/c1cnc2ccccc2n1)C12CC3CC(CC(C3)C1)C2 (stereo unspecified) | 4 | 14 | -11 | 7 | 0 | -0.5 | -34 | -48 | 13 | -4
COc1ccccc1OCC(=O)NCC1CCCN(Cc2cnn(C)c2C)C1 (stereo unspecified) | -15 | -8 | -6.4 | x | 18 | 0.1 | 16 | 5 | 1.8 | -23
O=C(COC(=O)Cc1n[nH]c(=O)c2ccccc12)NNC(=O)c1ccccc1 | -5 | -8 | x | -2 | -5 | 1.5 | 5 | 0 | -0.6 | x
CC(C)C(NC(=O)C1CCCCC1)C(=O)NCCc1ccccc1 (stereo unspecified) | -5 | -2 | 0.7 | -4 | -10 | -0.4 | 8 | 12 | -0.8 | 0
COc1ccc(CCNC(=O)Cn2c(=O)n(-c3ccc(F)cc3F)c(=O)c3sccc32)cc1OC | -5 | 3 | 4.4 | 1 | -4 | 0.3 | 0 | 1 | 5.8 | 54
O=C(CN1C(=O)C2C3C=CC(C3)C2C1=O)NCc1ccc2c(c1)OCO2 (stereo unspecified) | -5 | -3 | 19* | 0 | -15 | -0.6 | x | x | x | -3
C=CCSCC1Nc2cc(Cl)c(S(N)(=O)=O)cc2S(=O)(=O)N1 (stereo unspecified) | x | -16 | -1.9 | 0 | x | 0.4 | x | x | x | -4
COc1ccc(-c2cc(C(F)(F)F)nc(SCCC(=O)NCc3ccccc3)n2)cc1 | -10 | 1 | 32* | 9 | x | 0.2 | x | x | x | -13
C=CCn1c(-c2cccc(OCC)c2)n[nH]c1=S | 13 | 8 | -0.9 | -1 | -8 | -0.3 | 8 | 5 | -0.7 | 48
O=C(NC1CCCC1)C1CCC(=O)N1C1CCCCC1 (stereo unspecified) | -9 | 5 | -1.0 | -3 | -9 | 0.1 | 17 | 11 | 0.7 | -3
COc1cccc(NC(=O)CCC(=O)Nc2ccc3nc(N4CCOCC4)cc(C)c3c2)c1 | -1 | -5 | 1.5 | -10 | 17 | -0.5 | -19 | -12 | 0.5 | -26
O=C(NCc1csc(-c2cccs2)n1)C1CCC1 | -18 | 0 | 2.4 | -8 | x | -1.9 | 1 | 1 | 0.8 | 45
CC1COc2ccccc2N1C(=O)c1ccc(Cl)cc1 (stereo unspecified) | 0 | -6 | -1.7 | -9 | -7 | u | -3 | -13 | 4.4 | 0
CC1CCCN(C(=O)c2cc(-c3ccco3)nc3ccccc23)C1 (stereo unspecified) | x | 0 | 2.4 | 0 | x | 1.2 | 4 | 8 | 1.3 | 7
Cc1ccc(-n2nnnc2SCc2ccccn2)cc1C | 2 | 6 | -0.2 | 5 | -10 | -0.9 | x | x | x | -5
COc1ccc(S(=O)(=O)N2CCC(C(N)=O)CC2)c2ccccc12 | -5 | 1 | -2.1 | x | 8 | 1.3 | x | x | x | -3
COc1c(Cl)cc(Cl)cc1CNCCNCC(C)O (stereo unspecified) | -8 | -2 | 2.9 | -4 | 16 | 0.0 | 6 | 2 | -5.5 | 3
CCN(CC)c1ccc(C2C(C(=O)OCCOC)=C(C)NC3=C2C(=O)CCC3)cc1 (stereo unspecified) | -11 | 3 | 3.6 | 0 | 23 | 0.6 | -4 | 1 | 2.1 | 99*
CCCOc1ccc(C(=O)N(CC(C)C)c2c(N)n(Cc3ccccc3)c(=O)[nH]c2=O)cc1 | -7 | -5 | -3.7 | 1 | -8 | 1.5 | 1 | 6 | 2.5 | -2
Cc1cc(NC(=O)/C=C/c2cccc(Cl)c2)n(-c2nc3ccccc3[nH]2)n1 | -2 | -6 | x | 59 | 34 | 0.5 | x | x | x | x
CCOCCCn1c(SCC(=O)Nc2ccc(C(N)=O)cc2)nc2ccccc2c1=O | 6 | -3 | -3.2 | -2 | -5 | 0.1 | x | x | x | x
O=C(NCCN1CCCCC1)c1c(O)c2ccccc2[nH]c1=O | 11 | -6 | -7.2 | 2 | -2 | 1.7 | x | x | x | -5
COc1ccc(CNS(=O)(=O)NCc2ccccc2)cc1 | 9 | -12 | -2.5 | 4 | 4 | 0.6 | 8 | 11 | 2.5 | -3
Oc1ccc(-c2nc3ncccn3c2Nc2ccc3c(c2)OCO3)cc1 | 1 | 7 | 8.2 | 3 | -6 | -0.5 | x | x | x | 99*
CN1CCN(S(=O)(=O)c2cccc(C(=O)N(C)Cc3c(F)cccc3Cl)c2)CC1 | x | -1 | -21 | 1 | x | 1.0 | 2 | 6 | 2.3 | -7
O=S(=O)(c1ccc(NC(=S)N/N=C/c2ccc(O)c(O)c2)cc1)N1CCOCC1 | -9 | 1 | 12 | 1 | -14 | 0.0 | -2 | 10 | 0.4 | 99*
CCN(CC)C(=O)c1sc2c(c1C)c(=O)n(-c1ccc(C)c(C)c1)c(=O)n2CC(=O)NCC1CCCO1 (stereo unspecified) | -4 | -3 | 0.9 | -5 | -14 | 0.9 | 6 | -1 | -6.2 | -5
O=C1/C(=C\c2cccc([N+](=O)[O-])c2O)SC(=S)N1Cc1ccccc1 | 14 | 18 | 0.1 | 7 | -2 | 0.5 | 7 | -2 | 5.4 | 20
Clc1ccc(-c2nc3ccccc3n2OCc2ccccc2)cc1 | -16 | 7 | 0.6 | 3 | 18 | 0.0 | x | x | x | x
CC(=O)c1cnc2cc(C)nn2c1C | 1 | 2 | 0.2 | 0 | -10 | -0.3 | x | x | x | -17
CCc1ccc(C(=O)N2CCN(c3ccc(F)cc3)CC2)s1 | -4 | 19 | -11 | 0 | 0 | 0.2 | x | x | x | 27
O=S(=O)(Nc1ccc2c(c1)OCCO2)c1ccc2oc3ccccc3c2c1 | -18 | 7 | -4.4 | 3 | 4 | 0.1 | x | x | x | -2
CCCOc1ccc(C(=O)Nc2ccc(S(=O)(=O)Nc3cc(C)nc(C)n3)cc2)cc1 | 5 | -5 | 3.8 | 0 | 17 | 0.6 | -13 | -9 | -3.2 | 96*
CCC(=O)c1ccc(OCC(=O)NC2CCN(Cc3ccccc3)CC2)cc1 | x | -14 | -2.0 | -1 | x | 0.7 | 10 | 5 | -0.7 | -4
CC(C)CC(c1nnnn1CCc1ccccc1)N1CCC(C(N)=O)CC1 (stereo unspecified) | 9 | 9 | -0.8 | 1 | 3 | -0.1 | x | x | x | -13
Oc1ccccc1-c1n[nH]c(=S)n1Cc1ccccc1 | -9 | 3 | 2.7 | 1 | -4 | -0.9 | -15 | -14 | -4.7 | 24
O=C(c1ccccc1)C1CCN(C(=O)c2ccc(Cl)cc2)CC1 | -5 | -6 | -6.6 | x | -7 | -0.2 | -27 | -23 | -3.1 | x
Cc1cccc(C)c1NC(=O)CN(C)C(=O)c1ccc(-c2cccc(C(F)(F)F)c2)o1 | -13 | -8 | 5.7 | 3 | 3 | -0.6 | -2 | 4 | -1.6 | -3
CC1CCCCN1C(=O)c1ccccc1OC1CCN(S(C)(=O)=O)CC1 (stereo unspecified) | 0 | 12 | 4.9 | -2 | 1 | 0.2 | 13 | 7 | 0.8 | 6
C=CCNC(=S)NNC(=O)c1ccncc1 | -4 | 1 | -0.7 | -2 | -6 | 0.8 | 16 | 12 | 2.8 | 23
Cc1c(C(=O)N2CCC(C(N)=O)CC2)oc2ccc(Br)cc12 | 1 | 19 | 5.2 | 1 | 3 | -0.3 | 1 | -1 | -0.1 | -22
CCc1ccccc1N(CC(=O)NC(C)(C)CC)C(=O)CCC(=O)Nc1nccs1 | -6 | 6 | -1.0 | -2 | 2 | 0.3 | -1 | -4 | -1.0 | -3
Cc1cc(C)n2nc(C(=O)Nc3ccc4c(c3)OCCO4)nc2n1 | x | -4 | i | 6 | x | -0.8 | 5 | 7 | -1.0 | -7
COc1ccc(-c2[nH]c(-c3ccccc3)nc2SCC(=O)NC2CCCC2)cc1 | 0 | -18 | 5.0 | 6 | 2 | 0.5 | -1 | -52 | -0.7 | 66
COc1ccccc1CN1C(=O)CN(C2CCCCCC2)C(=O)C1c1ccc(F)cc1 (stereo unspecified) | -42 | 3 | -4.3 | 6 | 31 | -0.1 | x | x | x | x
Cc1cc(C(=O)N/N=C/c2cccc([N+](=O)[O-])c2)c(C)o1 | 3 | 3 | 4.8 | x | -5 | -5.4 | x | x | x | u
O=C(Nn1cnc2ccccc2c1=O)c1ccc([N+](=O)[O-])cc1 | 25 | -4 | -0.2 | -3 | 6 | 0.7 | 21 | 13 | 1.5 | -4
Cc1ccc(NC(=O)Cc2ccc3c(c2)CCCC3)cc1C | -11 | 2 | 0.9 | -7 | 24 | 0.0 | 10 | -3 | 3.6 | -4
COc1ccc(NC(=O)CN(C)C(=O)c2c(-c3c(F)cccc3Cl)noc2C)cc1 | -1 | -3 | 0.4 | x | 5 | 1.4 | 1 | 0 | 2.5 | -3
Cc1cc(C)n2cc(CSc3nc4ccccc4s3)nc2n1 | 19 | -19 | x | -10 | -3 | -1.2 | x | x | x | x
CC1COC(C)(CC(=O)NN2C(=O)c3ccccc3C2=O)O1 (stereo unspecified) | 3 | 1 | -0.8 | -9 | -7 | -0.2 | 2 | 8 | -1.2 | 0
COc1ccc(NC(=O)C(=O)NCCN2CCN(C(=O)c3ccc(C(C)(C)C)cc3)CC2)cc1 | -5 | 9 | -4.2 | 2 | 8 | -0.3 | 3 | 7 | -0.9 | -6
COc1cccc(S(=O)(=O)NCc2ccc(C(=O)N3CCN(c4ccccc4)CC3)cc2)c1 | 15 | 14 | -3.7 | 0 | 21 | 0.2 | -8 | -13 | 2.9 | 1
COC(=O)c1ccc(/C=C/C(=O)OCC(=O)Nc2sccc2C(N)=O)cc1 | x | 3 | 5.4 | -2 | x | -5.4 | x | x | x | 0
